HPGD inh: blocks human HPGD enzyme activity. purified HPGD, NADH fluorescence kinetic, PGE2 substrate. Potency, µM, without a hit: at the top dose activity change, negative = inhibition, most hits filed as inhibitors. 150,000 tested, 4.3% active. AID 894; active = well fitted inhibition curve with a large enough effect (not every such curve was filed as active); inconclusive = small, poorly fitted or top-dose-only effect, or another doubt; inactive = no such curve, though single readings can be large or run the other way;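 note: top concentration of the series not given in the record; plate controls included wells without enzyme; inactives centre near -10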
Target sequence (P15428 whole entry, looked up): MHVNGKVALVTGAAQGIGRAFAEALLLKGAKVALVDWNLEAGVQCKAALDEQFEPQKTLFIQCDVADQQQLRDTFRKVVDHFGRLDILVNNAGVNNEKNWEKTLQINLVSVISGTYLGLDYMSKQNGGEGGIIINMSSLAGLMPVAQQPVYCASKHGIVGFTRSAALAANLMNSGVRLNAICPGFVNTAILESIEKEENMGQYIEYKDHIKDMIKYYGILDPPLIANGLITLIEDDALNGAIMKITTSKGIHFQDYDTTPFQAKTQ
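20 nM HPGD preincubated 15 min at room temperature with compound in 50 mM Tris-HCl pH 8, 0.01% Tween 20. Started with 1 mM NAD+ and 30 uM prostaglandin E2; NADH fluorescence (360/450 nm) read 5 times over 30-s intervals, last minus first.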
The depositor's hits bear a star; ? = inconclusive; & = joins results of further samples. % is set by controls: 0 for no effect and ±100 for the full control effect; potency is the fitted concentration of half-maximal effect. Only part of the results is shown (hit frequency here may not be typical).

SMILES	HPGD inh
CCOc1ccc(NC(=O)CN(C2CCCCC2)S(C)(=O)=O)cc1	-17%
Cc1cc2c3c(c1C)C1(C(=O)N3C(C)(C)CC2C)C(C#N)=C(N)OC2=C1C(=O)CC(C)(C)C2 (centres undefined)	-13%
CCCCNC(=O)c1cccc(C(=O)NCCCC)c1	-15%
CCOC(=O)Cc1c(C)nc2c(-c3ccc(Cl)cc3)c(C)[nH]n2c1=O	?
CC(C)Oc1cccc(C(=O)NC(=S)Nc2cccc(NC(=O)c3ccccc3Cl)c2)c1	-10%
CCOc1ccc(C(O)Cc2nc3ccccc3n2C)cc1 (centres undefined)	-17%
COc1ccc(C(=O)N2CCN(c3c(C)cccc3C)CC2)cc1OC	-1%
Cc1ccc(C(C(=O)NCc2ccc(F)cc2)N(C(=O)c2csnn2)C2CC2)o1 (centres undefined)	-2%
Cc1cc(C)c2c(=O)[nH]c(=O)n(Cc3ccccc3)c2n1	?
O=C(Nc1ccc(-c2nc3cc(Cl)ccc3c(=O)o2)cc1)c1ccco1	?
O=C(Cc1ccccc1)Nc1scc(-c2ccccc2)c1C(=O)N1CCOCC1	-1%
CN1CC(=O)N(CC(=O)Nc2ccc(Cl)c(C(F)(F)F)c2)C1=O	-1%
O=C(COc1ccc(Cl)cc1Cl)NN=C1c2ccccc2-c2ccccc21	-7%
O=C(CSc1nnc(CNC(=O)C23CC4CC(CC(C4)C2)C3)n1-c1ccc(F)cc1)Nc1ccc(F)cc1	-6%
CCc1nnc2c3cnn(-c4ccccc4)c3ncn12	?
CCCCOC(=O)Nc1sc2nc(C)cc(C)c2c1-n1cccc1	-3%
CCOC(=O)N1CCN(C(=O)c2cn(C)c(=O)c3c2c2ccccc2n3C)CC1	?
COc1cc(=O)n(C)c2c(OCC3OC(C)(C)OC3(C)C)cccc12 (centres undefined)	-14%
O=C(CN1C(=O)C2CCCCC2C1=O)Nc1nc(-c2ccccn2)cs1 (centres undefined)	28µM*
Cc1nn(CC(=O)Nc2ccc(C(=O)N(C)C)cc2)c(=O)c2ccccc12	-15%
Cc1ccc(C)c(S(=O)(=O)N2CCCOC2CNC(=O)C(=O)NCc2ccco2)c1 (centres undefined)	-18%
COc1ccc(-n2nnnc2SCC(=O)c2ccc(O)c(O)c2)cc1	25µM*
COc1ccc2c(=O)c(-c3ccccc3)c(C)oc2c1	-9%
CCCOc1ccc(N2CC(C(=O)Nc3ccccc3F)CC2=O)cc1 (centres undefined)	-11%
Cc1cccc(Nc2nc(-c3cccs3)cs2)n1	-20%

The list goes on:
SMILES	HPGD inh
CC(=O)N[C@@H]1C(O)OC(CO)C(O)C1O (some centres undefined)	-13%
O=C(NCC1CCCO1)c1ccc2nc(N3CCCCC3)sc2c1 (centres undefined)	?
Cc1c(N)cc(C(=O)N2CCOCC2)cc1[N+](=O)[O-]	-9%
Cc1ccc(N(C(=O)c2ccc(CN3CCOCC3)o2)C(C(=O)NCCC(C)C)c2cccs2)c(C)c1 (centres undefined)	-3%
Cc1ccc(OCCN2CCN(C)CC2)c([N+](=O)[O-])c1	-11%
CCOc1ccccc1Nc1ccc(C(=O)O)cc1NC(C)=O	22µM*
O=C(c1ccccc1)N1CCCC(c2ccc(Cl)cc2)=N1	-17%
Cc1nnsc1C(=O)Nc1ccccc1Cl	-12%
N#Cc1cccc(CS(=O)(=O)c2nnnn2C2CCCCC2)c1	-10%
c1ccc(-c2csc(-n3cnnn3)n2)cc1	-17%
O=C(O)Cc1cc(C(=O)Nc2ccc(Br)cc2)sc1-c1ccccc1	-26%
CC(C)Cn1c(N)c(C(=O)CCl)c(=O)n(C)c1=O	-3%
O=C(c1ccc(-c2ccc(Cl)cc2)o1)N1CCN(c2ccc([N+](=O)[O-])cc2Cl)CC1	-16%
O=C(COC(=O)Cc1ccc(F)cc1)Nc1cc(S(=O)(=O)N2CCOCC2)ccc1N1CCCC1	-4%
c1ccc(-n2ncc3c(NCCCN4CCOCC4)ncnc32)cc1	-22%
N#Cc1nc(COc2ccc(-c3ccccc3)cc2)oc1NCCCN1CCOCC1	-9%
COc1ccc(C(=O)Nc2ccc3oc(Cc4ccc(Cl)cc4)nc3c2)cc1OC	-7%
COc1ccc(C2C(C#N)=C(N)OC3=C2C(=O)CC(C)(C)C3)c([N+](=O)[O-])c1OC (centres undefined)	-1%
O=C(CCn1c(=O)c2ccccc2n(Cc2cc(=O)n3ccccc3n2)c1=O)NCc1ccco1	?
CC(=O)Nc1ccc(S(=O)(=O)n2cnc3cc(C)c(C)cc32)cc1	-28%
O=C(NCc1ccc2c(c1)OCO2)c1c(O)c2cccc3c2n(c1=O)CCC3	-20%
Cc1nn(-c2ccccc2)c(C)c1NC(=O)Cc1cccs1	16µM*
CC(=O)Nc1ccc(S(=O)(=O)N2CCN(c3cc(C)ccc3C)CC2)cc1	-3%
O=C(Nc1ccc(N2CCOCC2)c(Cl)c1)c1ccco1	-7%
CC(=O)N1CC2(C)CN(C(C)=O)CC(C)(C1)C2	-3%

Taken from above.
Cc1nnsc1C(=O)Nc1ccccc1Cl @ HPGD inh: -12%
O=C(c1ccccc1)N1CCCC(c2ccc(Cl)cc2)=N1 @ HPGD inh: -17%
N#Cc1nc(COc2ccc(-c3ccccc3)cc2)oc1NCCCN1CCOCC1 @ HPGD inh: -9%

Next part
SMILES	HPGD inh
N#CCc1c(C#N)c(N)nc(N2CCN(S(=O)(=O)c3ccccc3)CC2)c1C#N	?
O=C(CSc1nnc2c3ccccc3c3ccccc3c2n1)Nc1ccccc1F	-16%
C/C(O)=C(\C#N)c1nc2ccccc2[nH]1	-9%
COC(=O)N1CCC2(CC1)CN(C(=O)Nc1cccc(C#N)c1)C2	-25%
COC(=O)C1=C(C)N(Cc2ccco2)C(=O)N[C@H]1c1cccc(C(F)(F)F)c1	-1%&0%
O=C(O)c1ccc(NC(CSCc2ccc(F)cc2)C(=O)O)c([N+](=O)[O-])c1 (centres undefined)	-3%
C#CCOCCOCCOCCNc1nc(N2CCN(C(=O)[C@H]([C@@H](C)CC)n3cc(CCCN=C(N)N)nn3)CC2)nc(N2CCN(C(=O)[C@H](CCCCN)n3cc(CCC(=O)O)nn3)CC2)n1	3%
Cc1cc(C)cc([N+](=O)[O-])c1	-4%
CCOC(=O)CNC(=O)c1sc2nc(C)cc(C)c2c1N	?
Fc1ccc(CNCc2ccc(Br)cc2)cc1	0%
CC/C(C)=N/NC(=S)NCc1ccco1	4%
CCOC(=O)c1cnn(-c2ccccc2)c1NC(=O)c1cccs1	-6%
COC(=O)c1c(N2C(=O)CCC2=O)sc2c1CCCC2	-5%
CCCCNc1cc(C)nc(N2CCOCC2)n1	-10%
C[C@H](NC(=O)NCc1cccs1)C(=O)O	0%
C=C[C@](C)(O)CCC1C(=C)CC(O)C2C(C)(C)CCCC12C (some centres undefined)	-11%
O=C(NC1CCN(Cc2ccccc2)CC1)c1c(F)cccc1F	-11%
CN1CCC2(CC1)C1CN(C)CC=C1C(C#N)=C(N)C2(C#N)C#N (centres undefined)	?
CCc1cc(C(=O)OC)c(NC(=O)CCC(=O)O)s1	13µM*
COc1ccc(NC(=O)Nc2ccc(F)cc2F)c(C)c1	-12%
CC(NC(=O)c1ccco1)c1ccc2c(c1)OCCO2 (centres undefined)	-9%
O=c1[nH]cnc2scc(-c3ccc(F)cc3)c12	-4%
O=C(NCCCNC(=O)C(F)(F)C(F)F)C(F)(F)C(F)F	-3%
CC(=O)c1cc(OC(=O)c2ccncc2)ccc1OC(=O)c1ccncc1	1%
Cc1cccc(C(=O)N/N=C/C(C)Cc2ccc3c(c2)OCO3)c1 (centres undefined)	-11%

Additional structures follow:
SMILES	HPGD inh
COCCN1Cc2cccc(C(=O)Nc3cc(C)cc(C)c3)c2C1=O	-26%
Cc1ccc2nc(C)c(C(=O)N/N=C/c3cccs3)cc2c1	-19%
O=C1NC2=C(C(=O)c3ccccc32)C(c2ccccc2)N1 (centres undefined)	-24%
COC(=O)c1ccc(/C=C/c2ccc3cccc(OC)c3n2)cc1	?
O=C(CCCNS(=O)(=O)c1cccc2nsnc12)NCc1ccc(Cl)cc1	-8%
C/C(=N\Nc1nc(Cl)c(Cl)cc1Cl)c1ccc(S(=O)(=O)NCc2ccco2)cc1	-21%
O=C(Nc1ccc(Cl)cc1)Nc1cccnc1	2%
N#Cc1ccccc1NC(=O)CSc1nccn1CCc1ccccc1	-15%
CC(C)NC[C@H](O)c1ccc2ccccc2c1	-4%&-5%
O=C(CNC(=O)c1ccc(S(=O)(=O)N2CCCC2)cc1)N/N=C/c1ccc(Cl)cc1	0%
O=C(N/N=C/c1cc([N+](=O)[O-])ccc1O)C1CCCCC1	-14%
CC(C)(C)C(=O)CCN1C(=O)C2(OCCO2)c2ccccc21	-8%
CCN(CC)C(=O)C1CCN(Cc2cccc(OCc3ccccc3)c2)CC1	-9%
O=C(CN1C(=O)COc2ccccc21)NCc1ccc(C(=O)O)cc1	-13%
C=CCNc1ncnc2c1cnn2-c1ccc(OC)cc1	?
COC(=O)[C@@]1(Cc2ccc(F)cc2)[C@H]2c3cc(C(=O)N(C)C)n(C[C@H](O)CO)c3C[C@H]2CN1C(=O)c1ccccc1	-8%
NC(=O)C1(N2CCCCC2)CCN(C2CC(=O)N(Cc3cccs3)C2=O)CC1 (centres undefined)	3%
O=C(NN1C(=O)C2C3CCC(O3)C2C1=O)c1ccc(Br)o1 (centres undefined)	-5%
CCSc1nnc(-c2ccncc2)o1	-3%
N#C/C(=C\N1CCN(Cc2ccc3c(c2)OCO3)CC1)c1nc2ccccc2s1	-13%
S=C(NCc1ccco1)Nc1cc(Cl)c(Cl)cc1Cl	3.2µM*
O=C(CCn1nc(-c2ccccc2)ccc1=O)N1CCCC1	-10%
COC(=O)c1ccc(NC(=O)CNS(=O)(=O)c2cccs2)cc1	-20%
CC(C)N(Cc1nc(-c2ccccc2)no1)C(=O)CN(C)S(=O)(=O)c1ccccc1	-4%
C/C(CC(C)(C)C1CCCCC1)=N\NC(N)=S	-11%

Next section
SMILES	HPGD inh
Cn1c(O)c(C(C#N)=C2N=c3ccccc3=N2)c2ccccc21	-10%
CC(=O)C1=C(O)C(=O)N(c2ccc(S(N)(=O)=O)cc2)C1c1ccc([N+](=O)[O-])cc1 (centres undefined)	-14%
O=C(NC1CCCC1)c1ccccc1-c1ccccc1	0%
CN(C)S(=O)(=O)c1ccc(N2CCCC2)c(C(=O)NCc2ccccc2)c1	-6%
COc1ccc(S(=O)(=O)N2CCOC2CNC(=O)C(=O)NCCc2c[nH]c3ccccc23)cc1C (centres undefined)	-1%
O=C(CCN1CCOCC1)c1ccc2c(c1)OCCO2	-25%
COC(=O)c1nnn(-c2nonc2N)c1CSCCO	-6%
CCOC(=O)CSc1nnc(-c2ccc(S(=O)(=O)N3CCOCC3)cc2)n1-c1ccccc1	?
CC1(OC(=O)C2CCCC2)C(=O)C=C2C=C3CCCCN3C=C2C1=O (centres undefined)	-2%
CN(C)c1ccc(NC(=O)CN2C(=O)CC(c3ccccc3)=Nc3ccccc32)cc1	-6%
c1ccc(COc2ccc(CNCc3cccs3)cc2)cc1	-26%
CN(CP(=O)(O)CN(C)S(C)(=O)=O)S(C)(=O)=O	-5%
Cc1cccc(C(=O)Oc2ccc(/C=N/NC(=O)c3ccccc3O)cc2)c1	-5%
CCC(C)(C)NC(=O)C(c1cccn1C)N(C(=O)Cn1nnc2ccccc21)c1ccc(OC)cc1OC (centres undefined)	-1%
O=C(NCCCn1ccnc1)c1cc(-c2cccs2)on1	-8%
COCCn1c(C)cc2c(c1=O)C(c1ccco1)C(C#N)=C(N)O2 (centres undefined)	-11%
Cc1ccc(S(=O)(=O)N2CCCCC2)cc1NC(=O)COC(=O)c1cc[n+]([O-])cc1	-6%
Cc1ccc(NC(=O)CCSc2nnc(C)s2)cc1	-14%
COc1ccc(-c2nc(CN3CCCC(C(=O)NC4CCCC4)C3)c(C)o2)cc1 (centres undefined)	-15%
COC(=O)c1ccccc1NC(=S)N(Cc1ccc2c(c1)OCO2)Cc1cc2cccc(C)c2[nH]c1=O	-15%
OC(COc1ccc(OCc2ccccc2)cc1)CN1CCCCC1 (centres undefined)	0%
COC(=O)C(NC(=O)c1ccccc1C)(Nc1ncc(S(=O)(=O)c2ccc([N+](=O)[O-])cc2)s1)C(F)(F)F (centres undefined)	-14%
CCN(CC)CCCNC(=O)c1cc2c(-c3ccc(Cl)cc3)nn(C)c2s1	?

Of the compounds above, these contain a furan ring, fused or not:
SMILES	HPGD inh
Cc1ccc(C(C(=O)NCc2ccc(F)cc2)N(C(=O)c2csnn2)C2CC2)o1 (centres undefined)	-2%
O=C(Nc1ccc(-c2nc3cc(Cl)ccc3c(=O)o2)cc1)c1ccco1	?
Cc1ccc(C)c(S(=O)(=O)N2CCCOC2CNC(=O)C(=O)NCc2ccco2)c1 (centres undefined)	-18%
Cc1ccc(N(C(=O)c2ccc(CN3CCOCC3)o2)C(C(=O)NCCC(C)C)c2cccs2)c(C)c1 (centres undefined)	-3%
O=C(c1ccc(-c2ccc(Cl)cc2)o1)N1CCN(c2ccc([N+](=O)[O-])cc2Cl)CC1	-16%
O=C(CCn1c(=O)c2ccccc2n(Cc2cc(=O)n3ccccc3n2)c1=O)NCc1ccco1	?
O=C(Nc1ccc(N2CCOCC2)c(Cl)c1)c1ccco1	-7%
COC(=O)C1=C(C)N(Cc2ccco2)C(=O)N[C@H]1c1cccc(C(F)(F)F)c1	-1%&0%
CC/C(C)=N/NC(=S)NCc1ccco1	4%
CC(NC(=O)c1ccco1)c1ccc2c(c1)OCCO2 (centres undefined)	-9%
C/C(=N\Nc1nc(Cl)c(Cl)cc1Cl)c1ccc(S(=O)(=O)NCc2ccco2)cc1	-21%
O=C(NN1C(=O)C2C3CCC(O3)C2C1=O)c1ccc(Br)o1 (centres undefined)	-5%
S=C(NCc1ccco1)Nc1cc(Cl)c(Cl)cc1Cl	3.2µM*
COCCn1c(C)cc2c(c1=O)C(c1ccco1)C(C#N)=C(N)O2 (centres undefined)	-11%
